High-throughput results deposited in PubChem by National Center for Advancing Translational Sciences (NCATS).
Sfp PPTase inh – blocks B. subtilis Sfp PPTase activity; Q9F4F7; Biochemical Sfp PPTase activity, qHTS; Potency, µM, inactives show max response, negative = inhibition, most hits filed as inhibitors; hit rate 3.5% among 310,000; active = well fitted inhibition curve with a large enough effect; inconclusive = small, poorly fitted or top-dose-only effect, or another doubt; inactive = no such curve, though single readings can be large or run the other way;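 note: the enzyme is Sfp with the accession as filed and its product quenches rhodamine fluorescence; potency is the fitted concentration of half-maximal effect; 0% = enzyme reaction without inhibitor and -100% = no enzyme wells; top concentration of the series not given in the record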
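Step 1, compound plus 15 nM Sfp-PPTase, 15 min, room temperature. Step 2, add rhodamine-CoA (5 uM) and BHQ-2-YbbR (12.5 uM). Step 3, read 525/598 nm fluorescence at 0 and 30 min.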
CtBP-E1A blk – inhibitors of CtBP/E1A interaction | AlphaScreen GST-E1A/His-CtBP binding, 1536-well; stronger effect = lower value; control for the full effect not named in the record | activity change, % (test concentration not listed) | hit rate 0.49% among 340,000; in the data active means activity change below about -65%; inconclusive means about -30% to -65%; inactive means above about -30%; note: % is set by controls: 0 for no effect and ±100 for the full control effect; compound concentration not given in the record
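AlphaScreen with 125 nM GST-E1A and 125 nM His-CtBP (5X stocks) in Tris pH 8.0, 300 mM NaCl, BSA, Tween 20, TCEP. Compounds preincubated 2 h at 37 deg C, then glutathione donor/nickel acceptor beads added for 1 h at 37 deg C in dark.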
PINK1 expr mod – PINK1 expression modulation | PINK1 immunofluorescence, high-content cytometry, 24 h | Potency, µM (highest dose often 76.6 µM), inactives show at the highest dose activation (PINK1 increase), usual class: activators | hit rate 0.2% among 410,000 | AID 624263; active = well fitted activation curve with a large enough effect; inconclusive = small, poorly fitted or top-dose-only effect; inactive = flat fitted curve, though single readings scatter; cell line not stated here;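 note: potency is the fitted concentration of half-maximal effect; % of control where 0% means no effect; nearly all actives have a fitted effect of over 65% in size; a mitochondrial uncoupler was the plate control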
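PINK1 protein, normally rapidly degraded, was detected by immunofluorescence after 24 hour compound treatment of a stable cell line. Titration data (5 concentrations) came from laser-scanning cytometry, with CCCP-treated wells as controls.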
TRPV1 PAM – enhances activation of the human vanilloid receptor TRPV1. Q8NER1. TRPV1-expressing cells, Fluo-8 calcium influx, capsaicin EC20 potentiation; host cell line not named in the record; control for the full effect not named in the record. potentiation, % at 8.33 µM. hit rate 0.02% among 320,000; active means potentiation above 80%; inconclusive means 30% to 80%; inactive means below 30%; note: 0% is about no effect
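TRPV1-expressing cells were cultured overnight at 35.5C and loaded with Fluo-8 calcium dye for 40 to 90 min at room temperature. After a 10 s baseline, compound was added and calcium influx was read kinetically for 3 min (ex 480/em 520 nm).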
D2 potentiator – potentiates the human D2 dopamine receptor allosterically. P14416. DiscoveRx D2 beta-arrestin cells, luminescence, 90 min; 100% = 57 uM dopamine signal. potentiation, % (no concentration beside the values). hit rate 0.23% among 360,000; active = potentiation of 50% or more; inconclusive = 30% to 50%; inactive = 30% or less;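 note: compound concentration not given in the record; tested on top of an EC20 dose of dopamine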
Target sequence (P14416 whole entry, looked up): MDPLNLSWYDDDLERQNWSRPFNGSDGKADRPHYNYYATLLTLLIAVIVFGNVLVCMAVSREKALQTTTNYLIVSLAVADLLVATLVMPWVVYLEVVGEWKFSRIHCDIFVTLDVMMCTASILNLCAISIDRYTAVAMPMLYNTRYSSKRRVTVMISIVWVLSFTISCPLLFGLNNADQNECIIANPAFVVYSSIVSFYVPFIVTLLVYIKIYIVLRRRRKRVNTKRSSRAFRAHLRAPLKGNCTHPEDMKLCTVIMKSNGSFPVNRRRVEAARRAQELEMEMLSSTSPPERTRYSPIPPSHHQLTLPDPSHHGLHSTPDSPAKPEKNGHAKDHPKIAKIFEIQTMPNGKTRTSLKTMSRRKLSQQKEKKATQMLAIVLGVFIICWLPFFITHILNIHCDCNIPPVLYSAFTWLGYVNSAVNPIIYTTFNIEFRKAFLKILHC
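D2 cells co-treated with compound plus 50 nM dopamine (EC20) for 90 min at 37 deg C to detect potentiation. Beta-arrestin recruitment was read as enzyme-fragment luminescence after 1 h at ambient temperature. Full response was set by 57 uM dopamine.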
Six1-Eya2 blk – inhibitors of human Six1/Eya2 interaction; Q15475+O00167; AlphaScreen GST-Six1/His-Eya2 binding, biochemical; stronger effect = lower value; control for the full effect not named in the record; activity change, % (concentration not given with the values); hit rate 0.56% among 360,000; in the data active = activity change below about -65%; inconclusive = about -30% to -65%; inactive = above about -30%; note: % is set by controls: 0 for no effect and ±100 for the full control effect
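Six1/Eya2 binding was read as AlphaScreen signal after compounds were pinned into GST-Six1 plus His-tagged Eya2 (5X stock 250/500 nM) in pH 8.0 Tris/NaCl/TCEP buffer, beads added, then incubated 1 h, 37 C, dark.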
D2 ag – activates the human D2 dopamine receptor | P14416 | DiscoveRx PathHunter D2 beta-arrestin, luminescence, 90 min; 100% = 57 uM dopamine signal | activation, % (no concentration beside the values) | hit rate 0.084% among 360,000 | AID 624465; in the data active = activation above about 40%; inconclusive = about 15% to 40%; inactive = below about 15%; note: compound concentration not given in the record; the text of the record calls up to 30% inactive
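Agonist mode: compounds alone added to overnight-plated D2 PathHunter cells for 90 min at 37 C, with 57 uM final dopamine (EC100) defining full response. Beta-arrestin recruitment detected by chemiluminescent reagent, read after 1 h at ambient temperature.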
Numbers without * were called inactive; ? = inconclusive; · = no result given; [ ] = dose if it differs, or a comment.

The opening two records, to show the layout:
Each structure is followed by: D2 ag	CtBP-E1A blk	Six1-Eya2 blk	D2 potentiator	Sfp PPTase inh	PINK1 expr mod	TRPV1 PAM
> O=C(COC(=O)/C=C/c1ccc(OC(F)F)cc1)Nc1cccc(S(=O)(=O)N2CCCC2)c1
    -1.3	-1	-11	-10	·	1.6%	10
> O=C(c1cc(-c2ccc(O)cc2)on1)N1CCCCCC1
    4.6	2	5	1	7%	1.5%	-1

The whole of this part, repeating the preview:
Each structure is followed by: D2 ag	CtBP-E1A blk	Six1-Eya2 blk	D2 potentiator	Sfp PPTase inh	PINK1 expr mod	TRPV1 PAM
> O=C(COC(=O)/C=C/c1ccc(OC(F)F)cc1)Nc1cccc(S(=O)(=O)N2CCCC2)c1
    -1.3	-1	-11	-10	·	1.6%	10
> O=C(c1cc(-c2ccc(O)cc2)on1)N1CCCCCC1
    4.6	2	5	1	7%	1.5%	-1
> Cc1ccc(S(=O)(=O)N2C[C@H]3C(=O)C[C@@H](c4ccccc4)N(S(=O)(=O)c4ccccc4[N+](=O)[O-])[C@H]3C[C@H]2c2ccccc2)cc1
    2.8	0	-8	0	·	3.7%	·
> C[C@H]1Cn2cnc(C(=O)Nc3ccc(CNC(=O)OC(C)(C)C)cc3)c2C(=O)N1
    -1.7	0	-1	·	·	0.8%	·
> CN(CC(=O)Nc1cccc(F)c1)C(=O)c1ccc(N2CCOCC2)c([N+](=O)[O-])c1
    -3.3	-1	4	-7	12%	-0.1%	-6
> COc1ccccc1NC(=O)CN1CCN(S(=O)(=O)c2ccc(Br)cc2)CC1
    2.8	15	6	6	24%	1.3%	-2
> COC(=O)CCN(c1ccccc1)S(=O)(=O)c1ccc(OC)cc1
    -1.3	19	8	-15	24%	5.2%	-10
> O=C(CCC1CCCCC1=O)c1ccccc1 (stereo unspecified)
    -0.1	11	3	-12	6%	-0.7%	1
> O=C(COC(=O)c1ccccc1O)NCc1ccc2c(c1)OCO2
    0.0	3	5	2	·	-0.7%	·
> CCOc1ccc(NS(=O)(=O)c2ccc(C(=O)NCC(c3ccco3)N3CCCC3)cc2)cc1 (stereo unspecified)
    -6.3	1	2	-3	·	-0.2%	2
> Cc1cc(C)c(C)c(OCC(=O)O/N=C(\N)c2ccccn2)c1
    -0.6	1	3	-5	-12%	-0.5%	-8
> CCOC(=O)c1c[nH]c2c(C)cc(C)cc2c1=O
    -2.9	-3	-4	-8	10%	-3.0%	-9
> COc1ccc(CCNC(=O)CSc2nc(=O)[nH]c3c2CCC3)cc1OC
    0.3	3	1	-5	·	0.2%	-6
> COc1cc(C(=O)OCC(=O)NC2CCCC2)cc(OC)c1OC
    -1.6	10	2	1	4%	3.4%	-1
> CC(=O)Oc1c(S(=O)(=O)c2ccc(C)cc2)c(C)nn1-c1ccccc1
    3.1	-7	6	0	12%	-2.5%	-1
> Cc1ccc(S(=O)(=O)NN=C2CCc3ccccc32)cc1
    2.9	1	-8	-1	·	0.3%	·
> O=C(CCCN1C(=O)CCC1=O)Nc1ccc2c(c1)OCCO2
    2.0	9	1	28	6%	-0.1%	3
> O=S(=O)(Nc1ccccc1)c1ccc(NS(=O)(=O)c2c(F)cccc2F)cc1
    -1.0	15	0	-2	8%	-0.2%	?
> O=C(c1cnc2sccn2c1=O)N(Cc1ccccc1)c1ccccn1
    -4.4	-4	2	-3	18%	-0.7%	-12
> Cc1nn(C)c(NC(=O)c2ccc(Cl)cc2Cl)c1Br
    6.2	·	-5	-3	8%	-0.9%	3
> Cn1c(/C(C#N)=C(\O)c2ccccc2Cl)nc2ccccc21
    -2.9	-2	-8	-3	·	4.6%	·
> CCN(CC)S(=O)(=O)c1cc(OCC(N)=O)c(C)cc1Cl
    -0.8	-2	-7	-15	13%	-1.0%	2
> CCCC(=O)Oc1ccc(N(C(=O)CCC)S(=O)(=O)c2cccs2)cc1
    -2.2	0	?	-12	6%	0.3%	-9
> Cc1ccc(C2=N/C(=C/N3CCOCC3)C(=O)O2)cc1
    -2.2	-7	-5	-5	8%	-1.2%	-7
> COc1cc(C(=O)OCC(=O)c2cc(C)n(C)c2C)cc(NC(=O)c2ccco2)c1OC
    2.6	-7	-1	-1	8%	·	-2
> Cc1cccc(OCCCn2c(=O)sc3ccccc32)c1
    -1.0	27	27	-5	-9%	-0.5%	-18
> CNc1cc(CS(=O)c2ccccc2)nc(-c2ccccc2)n1 (stereo unspecified)
    -3.0	-1	4	-11	13%	-1.2%	-1
> Cc1cccc(C(=O)Nc2ccccc2C(=O)OCC(=O)Nc2ccc(C#N)cc2)c1
    -0.8	0	-2	-9	12%	3.3%	-8
> O=C(COc1ccccc1)Nc1nc2cc3c(cc2s1)OCCO3
    -0.4	0	2	-4	0%	4.6%	7
> O=C(O)c1cccc(S(=O)(=O)NNc2ccccc2C(F)(F)F)c1
    -1.0	2	3	0	-28%	7.7%	5
> CCOc1ccc(-c2nc(C#N)c(N3CCN(Cc4ccccc4)CC3)o2)cc1
    -4.2	-12	-29	4	-7%	1.1%	-3
> Cc1cc(C)cc(NC(=O)CCc2ccc(C)o2)c1
    -3.5	0	-7	0	0%	1.5%	9
> O=C(Nc1ccc2c(c1)OCCO2)C1CCN(C(=O)c2ccc(Br)cc2)CC1
    -1.0	-1	-3	-8	-9%	2.2%[38.3 µM]	-17
> CC(C)CC(C(=O)O)N1C(=O)C2C3CC(C2C1=O)C1C(c2ccccc2)c2sc(=O)[nH]c2SC31 (stereo unspecified)
    -0.6	3	0	-5	?	0.2%	1
> O=C(O)c1cc(-c2ccc(/C=N/N3C(=O)C4C5C=CC(CC5)C4C3=O)o2)ccc1Cl (stereo unspecified)
    -3.2	-6	3	-12	9%	1.0%	3
> CCOc1ccc(S(=O)(=O)NCCC(=O)NCC(c2ccc(OC)cc2)N2CCOCC2)cc1 (stereo unspecified)
    -4.5	-6	8	-23	·	-1.0%	·
> COc1ccc(Oc2ccc(C(F)(F)F)cc2NC(=O)c2ccc(F)cc2)cc1
    -5.4	3	14	-7	7%	8.6%	12
> Cc1cc(NC(=O)C(C)SCC(=O)NCc2ccc(F)cc2)no1 (stereo unspecified)
    -0.3	-9	15	0	·	0.4%	16
> O=S(=O)(NCCc1ccncc1)c1ccc(F)cc1
    -2.8	-3	-14	-5	16%	-0.2%	7
> CC1CCN(Cc2ccc(NC(=O)C3CCN(c4nnc(-n5cccc5)s4)CC3)cc2)CC1
    -2.8	-2	-7	-10	5%	3.5%	-16
> COc1ccccc1N1CCN(C(=O)c2coc(=O)c(Br)c2)CC1
    -1.9	9	7	-17	-12%	-0.5%	·
> COc1cc(/C=N/NC(=O)c2cccnc2)ccc1OS(=O)(=O)c1ccc(F)cc1
    1.4	4	-1	8	12%	28%[38.3 µM]	-1
> COc1ccccc1-c1c(C)oc2c(CN3CCOCC3)c(O)ccc2c1=O
    2.3	-12	-6	-12	7%	-3.2%	-12
> CCOC(=O)c1[nH]c2ccccc2c1NC(=O)NC1CCCCC1
    -0.4	6	3	-1	-5%	-0.5%	-16
> COc1cc(/C=C/C(=O)O)cc(S(=O)(=O)NC2CC2)c1OC
    -3.4	1	0	-10	25%	5.3%	-6
> Nc1c(Cl)cc(C2=NCCn3nc4cc(C(F)(F)F)ccc4c32)cc1Cl
    3.5	18	6	1	·	2.0%	11
> Nc1c(C(=O)Nc2cccc(C(=O)O)c2)sc2nc3c(cc12)CCCC3
    9.1	?	-24	2	20%	3.2%	-4
> O=C(NC1CCCCC1)C1CCCN(S(=O)(=O)c2cnc[nH]2)C1 (stereo unspecified)
    -1.8	3	5	-2	4%	1.0%	0
> Cc1cccc(NC(=O)CN2C(=O)N/C(=C/c3cc(C)n(C(C)C)c3C)C2=O)c1
    2.1	0	-10	-15	13%	-2.8%[38.3 µM]	3
> O=C(CCSc1ccc(Cl)cc1)NC12CC3CC(CC(C3)C1)C2
    -5.1	10	11	-15	26%	18%	18
> CCN(CC)CCN(Cc1cc2cc3c(cc2[nH]c1=O)OCO3)C(=S)NCC(C)C
    -6.1	-4	0	-3	19%	3.6%	-31
> CCN1CCN(c2ccc(S(=O)(=O)N3CCOCC3)cc2NC(=O)/C=C/c2ccc(OC)cc2OC)CC1
    -2.3	0	-5	-18	·	-0.5%	-6
> COC(=O)c1ccc2nc(-c3ccc(OC)c(OC)c3)c(Cc3ccccc3)n2c1
    -5.5	-21	12	-7	·	4.3%	·
> CCCCn1c(N)c(N(Cc2ccccc2OC)C(=O)CSCC(=O)Nc2cccc(C)c2)c(=O)[nH]c1=O
    -2.9	0	-1	-2	10%	1.1%	8
> CC(C)CCN1CC(C(=O)NCc2ccccc2)CC1=O (stereo unspecified)
    -1.9	-1	8	-4	-4%	1.7%[38.3 µM]	-18
> COc1ccc(OC(C)C(=O)NCCC2=CCCCC2)cc1 (stereo unspecified)
    0.1	2	17	4	13%	-0.4%	-15
> CC(C)n1c(CN2CCN(C(=O)c3ccco3)CC2)nc2c1c(=O)n(C)c(=O)n2C
    -0.1	-4	-15	-9	10%	-0.7%	1
> CC1(N2CCCCC2)C(=O)c2ccccc2C1=O
    -0.9	7	2	-1	16%	?	9
> O=C(N/N=C/c1cccc2nccnc12)c1ccncc1
    -1.1	-89*	-68*	5	?	2.1%	-2
> COc1ccc(Cl)cc1NC(=S)N1CCN(c2ccccn2)CC1
    2.2	-3	-7	-4	-19%	-0.8%	20

(list continues)
Each structure is followed by: D2 ag	CtBP-E1A blk	Six1-Eya2 blk	D2 potentiator	Sfp PPTase inh	PINK1 expr mod	TRPV1 PAM
> COc1ccc(NC(=O)C2Cc3c(-c4ccc(NC(C)=O)cc4)ccnc3O2)cc1OC (stereo unspecified)
    11	-11	-11	2	·	7.0%	·
> CN1C(=O)/C(=C\c2ccco2)N=C1c1ccc(Cl)cc1Cl
    8.5	-14	-28	-1	-17%	5.2%	-17
> COc1ccc(NC(=O)NCCCN2CCC(Cc3ccccc3)CC2)cc1
    -7.4	·	-9	-32	-9%	-0.8%	-4
> O=C(NCC1CCCO1)C1CC(c2ccc(Cl)c(Cl)c2)=NO1 (stereo unspecified)
    -0.7	3	-2	5	0%	0.3%[38.3 µM]	-3
> CC12CN3CC(C)(CN(C1)C3c1ccc(Br)cc1)C2=O (stereo unspecified)
    0.7	3	4	24	16%	-1.3%	-1
> Cc1ccc(C(=O)N(CCC2=CCCCC2)c2c(N)n(Cc3ccccc3)c(=O)[nH]c2=O)o1
    -3.8	1	-13	7	·	-1.2%	5
> O=C(NCCc1ccc2c(c1)OCCO2)c1ccccn1
    -1.4	3	8	-4	18%	-1.1%	11
